# From PubChem BioAssay
# PV pol inh: inhibitors of poliovirus RNA polymerase binding and polymerization; AID 588519; P03300; % elongation, % (compound at 16.7 µg/mL); poliovirus polymerase elongation, fluorescence polarization; stronger effect = lower value; 0.66% of 150,000 active; in the data active = % elongation below about 90%; also: some results filed as inactive read as strong as hits
# Target sequence (P03300 1749-2209 limits assumed): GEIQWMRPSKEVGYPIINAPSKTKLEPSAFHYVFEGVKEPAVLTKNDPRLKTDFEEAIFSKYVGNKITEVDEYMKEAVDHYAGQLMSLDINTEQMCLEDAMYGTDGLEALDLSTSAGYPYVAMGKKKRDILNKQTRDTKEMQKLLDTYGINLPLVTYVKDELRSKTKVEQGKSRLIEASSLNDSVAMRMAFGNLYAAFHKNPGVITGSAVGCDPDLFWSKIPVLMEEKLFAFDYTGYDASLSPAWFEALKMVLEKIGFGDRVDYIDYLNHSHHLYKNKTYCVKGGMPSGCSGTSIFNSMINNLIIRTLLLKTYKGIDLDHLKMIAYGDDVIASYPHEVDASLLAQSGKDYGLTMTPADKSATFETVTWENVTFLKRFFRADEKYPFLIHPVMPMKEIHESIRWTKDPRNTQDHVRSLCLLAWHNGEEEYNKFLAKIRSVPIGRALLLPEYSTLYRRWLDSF
# Mtb MbtI inh: blocks the Mycobacterium tuberculosis siderophore enzyme MbtI. P9WFX0. purified MbtI enzyme, fluorescence intensity read-out. inhibition, %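 (about 17 µg/mL by stock and volumes)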. 0.89% of 100,000 active. AID 493033;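 active = above 50% in both replicates, above 80% if mildly self-fluorescent; inactive = the rest, strongly fluorescent compounds included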;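 also: 0% = mean of negative and 100% = mean of positive controls; one replicate is shown; some compounds called inactive have numbers as strong as hits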
# Target sequence (P9WFX0 whole entry, looked up): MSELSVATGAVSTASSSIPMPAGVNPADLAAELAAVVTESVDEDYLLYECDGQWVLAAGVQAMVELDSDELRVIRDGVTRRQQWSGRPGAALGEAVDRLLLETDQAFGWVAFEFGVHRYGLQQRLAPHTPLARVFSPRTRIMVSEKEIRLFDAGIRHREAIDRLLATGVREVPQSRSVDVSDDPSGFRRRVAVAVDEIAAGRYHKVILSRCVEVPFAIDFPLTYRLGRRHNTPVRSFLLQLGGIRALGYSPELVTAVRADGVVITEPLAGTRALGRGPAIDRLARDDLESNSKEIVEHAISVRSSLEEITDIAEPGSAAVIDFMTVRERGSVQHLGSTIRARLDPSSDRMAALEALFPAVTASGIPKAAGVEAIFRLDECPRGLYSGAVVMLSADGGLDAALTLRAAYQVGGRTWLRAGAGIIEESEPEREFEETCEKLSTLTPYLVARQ
# MenB inh: blocks the Mycobacterium tuberculosis MenB enzyme. MenB enzyme assay, absorbance read-out; some hits fall short of the stated cut. inhibition, %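 (about 12 µg/mL by stock and volumes)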. 0.43% of 100,000 active. P9WNP5;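 active = mean of two replicates above 30%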;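 also: 0% = no compound and 100% = wells with inactive enzyme; the first replicate is given; strong numbers were not always called active; inactives centre near -10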
# PV pol inh intensity: further read-out of PV pol inh, marked with its call; % elongation; measured here: total intensity read-out; formula for this scale not given here;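 total fluorescence in place of polarization; lower means less elongation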
# An asterisk follows results filed as active; nt = not tested or not shown; & = joins results of further samples.
SMILES,PV pol inh,PV pol inh intensity,Mtb MbtI inh,MenB inh
O=C(Nc1nncs1)c1ccccc1,101,104,nt,-8
CCOC(=O)c1cccc(NC(=O)C2CCCN(c3ncnc4onc(C)c34)C2)c1 (configuration not stated),102,104,-26,10
COc1cccc(NC(=S)C(C#N)=C2N(C)c3ccccc3N2C)c1,101,102,1,-51
O=C(OCc1ccc(Cl)cc1)c1cnc(N2CCCCC2)nc1C(F)(F)F,99,100,-5,14
Cc1ccccc1Nc1nc(N)nc(CSc2nncn2-c2ccccc2)n1,95,98,11,3
CCSC1=C(C#N)C(C)C(C#N)C(=O)N1 (configuration not stated),100,101,-10,nt
O=C(COC(=O)c1cccs1)Nc1ccccc1,101,103,-2,10
Cc1cc(C)c(C(=O)COC(=O)C2CSC3(C)CCC(=O)N23)cc1C (configuration not stated),108,101,18,7
COc1cc2c(cc1OC)C(C)N(C(=O)c1cc(S(=O)(=O)N3CCCC3)cn1C)CC2 (configuration not stated),100,101,-6,14
O=C(COC(=O)C1CC2CCCC(C1)C2=O)c1ccccc1 (configuration not stated),104,107,-4,-15
COc1ccc(OCC(=O)Nc2ccc(CN3CCOCC3)cc2)cc1,102,102,6,-25
CN1C(=O)C(=Cc2ccccc2)C(=O)N(C)C1=O,105,106,nt,-59

# Compound profiles, as listed above:
# O=C(COC(=O)C1CC2CCCC(C1)C2=O)c1ccccc1 (configuration not stated) in the list: PV pol inh: 104; PV pol inh intensity: 107; Mtb MbtI inh: -4; MenB inh: -15
# Cc1cc(C)c(C(=O)COC(=O)C2CSC3(C)CCC(=O)N23)cc1C (configuration not stated) in the list: PV pol inh: 108; PV pol inh intensity: 101; Mtb MbtI inh: 18; MenB inh: 7
# O=C(OCc1ccc(Cl)cc1)c1cnc(N2CCCCC2)nc1C(F)(F)F in the list: PV pol inh: 99; PV pol inh intensity: 100; Mtb MbtI inh: -5; MenB inh: 14

# In the list so far, these have a cyano group.
SMILES,PV pol inh,PV pol inh intensity,Mtb MbtI inh,MenB inh
COc1cccc(NC(=S)C(C#N)=C2N(C)c3ccccc3N2C)c1,101,102,1,-51
CCSC1=C(C#N)C(C)C(C#N)C(=O)N1 (configuration not stated),100,101,-10,nt

# Carrying on.
SMILES,PV pol inh,PV pol inh intensity,Mtb MbtI inh,MenB inh
CCc1ccc(NC(=O)CN2C(=O)CCc3cc(S(=O)(=O)N4CCCCC4)ccc32)cc1,100,101,-27,-18
CN(C(=O)Cn1c(=O)n(CCCCC(=O)NC2CCCC2)c(=O)c2ccccc21)C1CCCCC1,103,102,5,-18
Cc1ccc(CSc2nnc(CCC(=O)O)c(=O)n2N)cc1,105,107,0,-5
COc1ccc2[nH]c(=O)c(CN(Cc3ccc4c(c3)OCO4)C(C)=O)cc2c1,102,108,-24,18
CC(C)N=C1NN=C(c2cccs2)CS1,103,109,47,-33
Cc1ccc(S(=O)(=O)N(C)CC(=O)N2CCC(Cc3ccccc3)CC2)cc1,100,98,-6,nt
COC(=O)COc1ccccc1OC,nt,nt,9,-7
CNC(=O)Nc1ccc2nc(C)oc2c1,100,104,-7,-25
Cc1ccc(C(=O)CC(C(=O)O)c2cn(CCC#N)c3ccccc23)cc1 (configuration not stated),100,95,-2,-18
Cc1ccc(C=Nc2ccc(Nc3ccccc3)cc2)s1,108,111,nt,-23
C=CCNC(=O)c1ccc2snnc2c1,103,104,4,2
O=C(O)CSc1nnc(C2CCCCC2)n1/N=C/c1cccc(F)c1,109,110,11,-17
CCOc1ccc(NC(=O)CN2N=C(c3ccc(C)cc3)CCC2=O)cc1,101,102,5,-15
CC(C)(C)c1nnc2n1N=C(c1ccc(Br)s1)CS2,114,124,-12,-3
NCC(c1ccc(F)cc1)N1CCCCCC1 (configuration not stated),102,99,0,8
COc1ccc(C(=O)N(CC(=O)NC2CCCC2)Cc2ccc3c(c2)OCO3)cc1OC,104,102,-8,-54
O=S(=O)(/N=C1\SCCN1S(=O)(=O)c1ccc(Cl)cc1)c1ccc(Cl)cc1,100,105,-1,-33
Cc1cccc(NC(=O)CN(C)C(=O)C2CCCC2)c1C,nt,nt,-16,-24
N/C(=N\S(=O)(=O)c1ccc(Cl)cc1)N1CCSCC1,106,111,-13,-9
c1ccc(-c2noc(-c3cccs3)n2)cc1,101,102,-9,-7
CC1(C)OC(=O)C(=Cc2ccc3c(c2)OCO3)C(=O)O1,100,99,-6,-8
CCSc1nnc(NC(=O)C2=NN(c3cc(C)ccc3C)C(=O)CC2)s1,100,101,-3,-32
CCOC(=O)Cc1csc(NC(=O)CSc2nc(=O)cc(N)n2-c2cccc(C)c2)n1,101,102,-14,-7
CC(C)(C)c1ccc(-c2noc(CSc3n[nH]c(=O)n3Cc3ccco3)n2)cc1,102,99,-4,-22
CCN1CCN(S(=O)(=O)c2ccccc2)CC1,98,105,-8,-11
Cc1nc(SCC(=O)NC(C)(C#N)C2CC2)c2c(C)c(C)sc2n1 (configuration not stated),101,101,2,-8
N#C/C(C(=O)c1ccccc1)=c1/s/c(=C\c2cccs2)c(=O)n1Cc1ccco1,98,123,0,-13
Cc1ccc(S(=O)(=O)NNS(C)(=O)=O)cc1,99,92,11,-24
CCOc1ncccc1C(=O)OCc1cc(=O)oc2c(C)c(C)ccc12,109,116,-7,-16
CSc1n[nH]c(N)c1-c1ccccn1,103,105,12,-14
CSc1ccccc1NC(=O)CN(C)C(C)C(=O)Nc1cccc(C#N)c1 (configuration not stated),101,99,-3,-9
O=C(COc1nsnc1N1CCOCC1)N/N=C/c1cccc(Br)c1,102,102,-1,-7
CCOC(=O)N(c1ccccc1)S(=O)(=O)c1ccccc1C,102,106,nt,-8
COC(=O)c1ccc(Oc2ccc(C(=O)OC)cc2)cc1,97,100,-2,-34
CC(c1ccc(F)cc1)n1cc(C(=O)NCCN(C)C)nn1 (configuration not stated),109,113,nt,-4
COC(=O)c1ccccc1S(=O)(=O)N1CCC(C(=O)NCCN2C(=O)S/C(=C\c3cccnc3)C2=O)CC1,107,118,3,-33
CC1(C)CC2CC(C)(CN2S(=O)(=O)c2ccccc2C(F)(F)F)C1 (configuration not stated),105,105,10,-14
COc1ccc(N(C=O)C(C(=O)Nc2c(C)cccc2C)c2ccc(Cl)cc2)cc1 (configuration not stated),102,105,nt,-7
O=C(OCc1cc(=O)n2cc(Br)ccc2n1)c1ccco1,107,111,-1,-11
NC(=O)c1cccc2c3c([nH]c12)CCCC3,101,105,54,4
CC(C)CCOc1cccc(OCC(=O)Nc2ccncc2)c1,104,108,-14,nt
Brc1cc2c(cc1Cn1nnc(-c3cccs3)n1)OCO2,99,93,11,-7
CCCN(CCC)c1nn2c(=O)c(C(=O)NCC)cnc2s1,101,101,113,0
COC(=O)c1c(-c2ccc(Br)cc2)noc1N,104,105,-16,-9
Cc1nn(-c2ccccc2)c2sc(C(=O)OCCCc3nc(-c4ccccc4)no3)cc12,100,102,1,10
CC1(C)CC(=O)C=C(Nc2ccccc2)C1,103,106,5,-17
CCCN1CCC(NC2CCN(Cc3ccccc3)CC2)CC1,100,104,nt,-24
O=C1c2[nH]nc(-c3ccc(Br)cc3)c2C(c2cccs2)N1c1ccc(Cl)cc1 (configuration not stated),101,101,9,-22
Cc1cccc(NC(=O)COC(=O)/C=C/c2ccc(F)cc2)c1C,104,106,-30,-16
C1=CC2C(C1)CC2NCCc1nnc2ccccn12 (configuration not stated),95,94,110,13
O=C(CSc1nnc(-c2ccoc2)c(-c2ccoc2)n1)c1ccc(-c2ccccc2)cc1,98,103,61*,20
Cc1occc(=O)c1OC(=O)c1ccccc1F,105,104,-8,19
CCN(CC)c1nc(C)nc(Cl)c1Cc1ccccc1,102,106,4,-75
C(=N\c1nccs1)/c1cccc2c1OCOC2,104,101,nt,-38
CNC(=S)NC1CC2CCCC(C1)N2Cc1ccco1 (configuration not stated),102,102,-11,-21
NCCSc1ccccc1,nt,nt,14,12
CC1(C)S[C@@H]2[C@H](NC(=O)C(C(=O)O)c3ccccc3)C(=O)N2[C@H]1C(=O)O (some centres not stated),98,101,-26,2
Cc1ccc2[nH]c(=O)c(CN(C(=O)NC3CCCCC3)C3CCCCC3)cc2c1,100,100,-11,-14
CC(C)=CC1C(C(=O)N/N=C(\C)c2cc(F)ccc2O)C1(C)C (configuration not stated),99,105,3,1
CC1=CC(=O)N(c2ccn(C)n2)C1=O,99,103,8,4
# (continued)
SMILES,PV pol inh,PV pol inh intensity,Mtb MbtI inh,MenB inh
O=C(NCc1ccccn1)c1cccnc1SCCS(=O)(=O)c1ccc(C(F)(F)F)cn1,106,112,-11,-7
CCNC(=O)/C=C/c1cccc(OC)c1OC,nt,nt,8,4
O=C(Nc1ccn(C2CC(OC(=O)c3ccccc3)C(CO)O2)c(=O)n1)c1ccccc1 (configuration not stated),101,99,-2,4
CCC(C)[C@H](NS(=O)(=O)c1cccc2ccccc12)C(=O)N[C@H](C=O)Cc1c[nH]c2ccccc12 (some centres not stated),104&103,102&101,-12,-9
c1cnc2c(CN3CCCCCC3)cccc2c1,104,98,-10,nt
Cc1ccn2c(=O)c(C(=O)O)cnc2c1,111,112,13,-16
NC(=O)c1ccc(S(N)(=O)=O)o1,102,101,-29,11
C#CCOc1c(Br)cc(/C=N/O)cc1OCC,100,101,4,-9
Cc1ccc(C)c(N(CC(=O)Nc2ccccc2)S(C)(=O)=O)c1,100,100,-10,-9
Cc1c(NC(=O)C(C)OC(=O)c2cccc(S(=O)(=O)N3CCCC3)c2)c(=O)n(-c2ccccc2)n1C (configuration not stated),103,103,-1,-13
COc1ccc2cc(C3CC(c4ccc(OC)c(OC)c4)=NN3C(=O)c3ccco3)c(Cl)nc2c1 (configuration not stated),103,109,-8,4
COc1ccc2oc(C(=O)OCc3ccc(OC)c(F)c3)c(C)c2c1,107,99,21,14
Clc1ccc(Nc2nnc3c4ccccc4c4ccccc4c3n2)cc1,107,114,-4,-7
Cn1ncc2c(NNS(=O)(=O)c3ccccc3)ncnc21,102,93,15,-22
COc1cc(OC)cc(OC(=O)C2=COCCO2)c1,106,105,-6,9
c1ccc(OCCn2c3ccccc3c3nc4ccccc4nc32)cc1,102,111,-9,0
Cc1nn(Cc2ccccc2Cl)c(C)c1C(=O)NCc1cccs1,104,106,-10,11
Oc1ccccc1C1OCC2(CO1)COC(c1ccccc1O)OC2 (configuration not stated),102,103,-2,4
CCCS(=O)(=O)N1CCC(C(=O)NCCc2ccccc2)CC1,101,104,-12,5
Cn1c(C(=O)NCCC2=CCCCC2)cc2c(=O)n(C)c3ccccc3c21,103,107,-3,-5
Cc1cc(C)c(C#N)c(SCCS(=O)(=O)Cc2ccc(Cl)cc2)n1,102,107,-5,-11
CCCCN(c1ccccc1)S(=O)(=O)c1ccc(F)cc1F,105,106,-9,-27
O=C(Nc1ccc2cn[nH]c2c1)c1cc(=O)c2ccccc2o1,98,101,-4,nt
COCC1=NN(c2ccccc2)C(=O)C1,106,104,nt,-117
Cc1csc(C(C#N)C(=O)CSc2cc(C)c3ccccc3n2)n1 (configuration not stated),101,109,6,-19
O=C(Nc1ccccc1)N1CCCN(c2nc3ccc(Cl)cc3s2)CC1,102,100,nt,-22
CCCn1c2ccccc2c2nnc(SCCNS(=O)(=O)c3ccccc3)nc21,101,99,nt,-30
N#Cc1c(NC(=O)C(F)(F)F)oc(-c2ccccc2)c1-c1ccccc1,101,102,-196,-10
CCN(Cc1ccccc1)C(=O)Cc1c[nH]c2ccccc12,100,106,-11,-22
Cc1cc(C)c2c(n1)nn1c(C)c(CCC(=O)NC(C)C)c(C)nc21,102,101,17,0
O=[n+]1cc(-c2ccc(Br)cc2)n([O-])c2c1CCC2,103,103,3,6
O=C(OCC(=O)c1ccccc1)/C(=C/c1cccs1)c1cccs1,104,112,-20,-59
CCN(CC)c1ccc2c(C)c(CO)c(=O)oc2c1,102,105,108,-371
Clc1ccc(/C=N/NCc2cn3ccsc3n2)cc1,105,100,11,3
CCC(C)NC(=O)CSC1=N/C(=C/c2ccc(OC)cc2)C(=O)N1Cc1ccco1 (configuration not stated),102,101,-4,-88
Cc1cc(-n2nc3ccc(Cl)cc3n2)c(O)c(C(C)(C)C)c1,103,99,11,7
N#CC1=Cc2ccccc2C2NN3C(C#N)=Cc4ccccc4C3NN12 (configuration not stated),103,104,1,0
Cc1c(/C=C2\SC(c3ccccc3)=NC2=O)c(=O)n(-c2ccccc2)n1C,69,194,6,-25
CN1CCC(N(C)C(=O)c2cc(-c3ccco3)nc3ccccc23)CC1,103,99,86,nt
CNC(=O)c1c(NC(=O)Cc2coc3cc(C)ccc23)sc2c1CCCC2,100,104,-1,-2
C=CCn1c(C(F)(F)F)nc2ccccc21,100,96,-12,-16
COCCn1ccc2c(OCC(=O)NCc3ccco3)cccc2c1=O,101,102,-45,7

# Pulled by compound from the entries so far:
SMILES,PV pol inh,PV pol inh intensity,Mtb MbtI inh,MenB inh
Clc1ccc(/C=N/NCc2cn3ccsc3n2)cc1,105,100,11,3
O=[n+]1cc(-c2ccc(Br)cc2)n([O-])c2c1CCC2,103,103,3,6

# Not a hit list. Share with any hit: about 1.7%.
